# Screening results from PubChem BioAssay.
# LASV entry inh – Lassa virus entry inhibition. Lassa virus pseudotype entry inhibition, cell reporter; control for the full effect not named in the record. Potency, µM (doses to about 37.9 µM), for the others: at the highest dose activity change, negative = inhibition, usual class: inhibitors. actives 1.2% (n = 300,000); active means well fitted inhibition curve with a large enough effect; inconclusive means small, poorly fitted or top-dose-only effect, or effect the other way; inactive means flat fitted curve, though single readings scatter; tested in HEK293 cells; further: on the % scale 0 is the no-effect control and ±100 the full control effect; nearly all actives have a fitted effect of over 50% in size; luciferase read-out
# RE007 growth inh – less growth of the S. pombe RE007 Vpr strain; AID 651644; actives 0.21% (n = 360,000); Potency, µM (titrated, usually from 92.2 µM), for inactives: top-dose activity change, negative = less growth; S. pombe RE007 Vpr strain, BacTiter-Glo ATP luminescence, 24 h; control for the full effect not named in the record; active = well fitted falling curve with a large enough effect; inconclusive = small, poorly fitted or top-dose-only effect; inactive = no such curve, though single readings can be large or run the other way;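 further: on the % scale 0 is the no-effect control and ±100 the full control effect; nearly all actives have a fitted effect of over 50% in size; the assay follows cell death caused by Vpr and the record does not say whether a fall means rescue or toxicity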
#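 Fission yeast RE007 carrying one integrated HIV-1 vpr copy, seeded at OD 0.01 in PMG+AL medium with 23 nL pinned compound. Grown 24 h at 30 degrees; viability read by BacTiter-Glo luminescence after 5 min.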
# NS1 inh – influenza NS1 inhibition | S. cerevisiae slowed by influenza A NS1, growth recovery by OD600 | Potency, µM (doses to about 46.1 µM), without a hit: at the top dose activity, positive = more growth | actives 0.4% (n = 270,000) | AID 2326; active means well fitted rising curve with a large enough effect; inconclusive means small, poorly fitted or top-dose-only effect; inactive means no such curve, though single readings can be large or run the other way; further: nearly all actives have a fitted effect of over 50% in size
#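 In this qHTS, NS1 from influenza A is expressed in budding yeast, where it slows growth. Cells are switched from glucose to 2% galactose medium (pH 6.0, -URA), treated with compound, and growth recovery is read at OD600.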
# SARS PLP yeast – SARS-CoV PLP inhibition in yeast | Potency, µM (titrated, usually from 32.9 µM), inactives show top-dose activity, positive = growth rescue | actives 0.19% (n = 330,000) | S. cerevisiae expressing SARS-CoV PLpro, growth rescue; control for the full effect not named in the record; active means well fitted rising curve with a large enough effect; inconclusive means small, poorly fitted or top-dose-only effect; inactive means no such curve, though single readings can be large or run the other way; further: 0% is about no effect; nearly all actives have a fitted effect of over 55% in size; growth read by luminescence after 48 h
# Cruzain noTriton – cruzain (T. cruzi) inhibition without detergent; P25779; Potency, µM, for the others: max response, negative = inhibition, hits mostly inhibitors; actives 2.3% (n = 200,000); purified cruzain, Z-FR-AMC fluorescence, no detergent;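 further: plate controls were enzyme without inhibitor for no effect and buffer without enzyme for full effect; nearly all actives have a fitted effect of over 40% in size; top concentration of the series not given in the record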
# Target sequence (P25779 123-467 limits assumed): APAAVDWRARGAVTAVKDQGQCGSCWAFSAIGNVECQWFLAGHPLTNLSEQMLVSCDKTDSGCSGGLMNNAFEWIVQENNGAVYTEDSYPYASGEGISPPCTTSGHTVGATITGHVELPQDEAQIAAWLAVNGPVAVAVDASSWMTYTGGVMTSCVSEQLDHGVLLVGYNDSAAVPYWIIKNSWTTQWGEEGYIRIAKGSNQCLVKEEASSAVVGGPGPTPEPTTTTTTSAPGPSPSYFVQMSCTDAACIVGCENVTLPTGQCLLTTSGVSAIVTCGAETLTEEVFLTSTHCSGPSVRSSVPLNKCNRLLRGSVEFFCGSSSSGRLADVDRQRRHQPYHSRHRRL
#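 Purified cruzain at 1.5 nM, pre-incubated 15 min with compound at room temperature in 100 mM sodium acetate pH 5.5, 5 mM DTT, 0.00005% Triton X-100. Reaction started with 2 uM Z-FR-AMC; AMC fluorescence increase over 60 s gives rate.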
# Cruzain inh Det – blocks cruzain activity in presence of Triton detergent; actives 0.43% (n = 200,000); P25779; Potency, µM, for inactives: max response, negative = inhibition, most hits filed as inhibitors; purified cruzain, Z-FR-AMC fluorescence, 0.01% Triton;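 further: plate controls were neutral wells for no effect and buffer without enzyme for full effect; nearly all actives have a fitted effect of over 40% in size; top concentration of the series not given in the record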
#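 Steps: dispense cruzain (1.5 nM final) in acetate buffer pH 5.5 with DTT and 0.01% Triton X-100; pin-transfer compounds; incubate 15 min RT; add Z-FR-AMC (2 uM final); read fluorescence every 30 s, using the 60 s intensity change.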
# 2A StopGo – FMDV 2A StopGo reporter, luciferase signal; human cells with a luciferase reporter of 2A StopGo recoding; control for the full effect not named in the record; Potency, µM (highest dose often 57.9 µM), for the others: at the highest dose signal change, negative = less light; actives 1.2% (n = 410,000); AID 1159524; active = well fitted falling curve with a large enough effect; inconclusive = small, poorly fitted or top-dose-only effect; inactive = no such curve, though single readings can be large or run the other way; tested in HEK293T cells; further: on the % scale 0 is the no-effect control and ±100 the full control effect; nearly all actives have a fitted effect of over 45% in size; luciferase light after 4 h
# Marburg entry inh – Marburg virus entry inhibition. actives 1.8% (n = 300,000). Marburg virus pseudotyped entry inhibition, cell reporter; control for the full effect not named in the record; about a third of the inactives were read at about 46 µM. Potency, µM (series often up to 37.8 µM), for the others: top-dose activity change, negative = inhibition, most hits filed as inhibitors; active = well fitted inhibition curve with a large enough effect; inconclusive = small, poorly fitted or top-dose-only effect, or effect the other way; inactive = flat fitted curve, though single readings scatter; tested in HEK293 cells; about a fifth of its hits are not listed in these tables; further: on the % scale 0 is the no-effect control and ±100 the full control effect; luciferase read-out
# * = called active by the depositor; ? = inconclusive; · = not tested or not shown; & = joins results of further samples; [ ] = remark or other dose. Unless noted, the call rests on the fitted dose curve; in most records, active means well fitted curve in the direction sought with a large enough effect; inconclusive means small, poorly fitted or top-dose-only effect, or another doubt; inactive means no such curve, though single readings can be large; an effect the other way counts as inactive or inconclusive. Potency means the concentration at half of the fitted maximal effect. Rows were taken by chance. Share with any hit: about 4.7%.
SMILES,Cruzain noTriton,Marburg entry inh,SARS PLP yeast,NS1 inh,2A StopGo,LASV entry inh,Cruzain inh Det,RE007 growth inh
CCOc1ccc(NC(=O)c2ccco2)c([N+](=O)[O-])c1,6%,?,16%,-2%,35%[activator],?,-3.6%,-3%
O=C(NCc1ccccc1)c1cc(=O)[nH]c2ccccc12,-5%,2%,-7%,3%,19%,4%,4.2%,0%
O=C1/C(=C/c2cccs2)N=C(c2cccs2)N1Nc1ccccc1,?,?,?,8%,-8%,1%,-0.5%,50%
Cc1ccc2c(Cl)cc(Cl)c(OCC(=O)Nc3ccc(C)c(S(=O)(=O)N(C)C)c3)c2n1,2%,-31%,3%,-3%,·,3%,-3.1%,·
CCOC(=O)C1CCN(C(=O)COC(=O)CSc2ccc(C(N)=O)cc2[N+](=O)[O-])CC1,·,-5%,8%,5%,-12%,?,·,4%
COc1ccc(CNc2oc(-c3ccc(COc4ccc(OC)cc4)o3)nc2C#N)cc1,-22%,?,·,·,-29%,?,-3.5%,·
O=C(N/N=C/c1cccnc1)c1cc(-c2ccccc2)nc2ccccc12,·,4µM*,2%,-1%,-10%,-20%[46.1 µM],·,9%
COc1ccc(OCC(=O)Nc2cccc(C(C)=O)c2)cc1,-1%,3%[46.1 µM],-6%,-13%,9%,21%,-0.7%,3%
CCCCN1CC(=O)N2[C@H](c3ccc(Cl)cc3)[C@@H]3C(=O)N(CC)C(=O)[C@@H]3[C@]2(Cc2ccccc2)C1=O,·,·,-2%,-4%,-3%,·,·,8%
COC(=O)c1scc(C)c1NC(=O)/C=C/C(=O)O,·,-9%,-5%,-32%,-3%,15%,·,6%
CCCCNC(=S)NNC(=O)c1cc(-c2ccncc2)nc2ccccc12,·,-16%,0%,-38%,4%,0%,·,9%
O=C(N/N=C/c1cn[nH]c1-c1ccccc1)c1ccco1,·,?,-1%,1%,15%,18%[46.1 µM],·,36%
Cc1ccc(/C=C/C(=O)c2ccc(O)cc2)cc1,·,?,-5%,-53%,12%,8.9µM*,·,-12%
Cc1c(NC(=O)CCN2C(=O)c3ccccc3C2=O)c(=O)n(-c2ccccc2)n1C,-10%,-2%,8%,13%,7%,-12%,4.8%,7%
CC(C)c1nnc(NC(=O)CCC(=O)N2CCN(C3CCCCC3)CC2)s1,0%,-10%,8%,6%,·,-7%,3.1%,-9%
CCn1cc(C(=O)NCCCN2CC(C)CC(C)C2)c(=O)c2cc(S(=O)(=O)N(C)C3CCCCC3)ccc21 (centres undefined),·,·,-1%,-14%,21%,·,·,2%
CC(C)(C)C1(O)CC(C(F)(F)F)=NN1C(=O)CCCc1ccccc1 (centres undefined),·,8%[46.1 µM],-1%,-9%,13%,?,·,-4%
CCOC(=O)c1cnn(-c2nc(CC)nc3sc4c(c23)CCC4)c1N,-26%,10%,4%,3%,-3%,15%,7.6%,7%
Cc1ccc(S(=O)(=O)N(C)CC(=O)N2CCc3ccccc32)cc1,7%,2%,-9%,-1%,-5%,2%,-3.4%,-11%
CCOC(=O)c1ccc(NC(=O)NCc2ccccn2)cc1,·,·,0%,-2%,22%,·,·,24%
O=C(CSc1ccccc1F)NC(=O)NCc1ccco1,·,2%[46.1 µM],0%,2%,-18%,13%[46.1 µM],·,12%
Cc1cc(-c2csc(N)n2)c(C)n1Cc1ccco1,·,?,-4%,6%,19%,3%,·,7%
COc1cc2[nH]c(=O)n(Cc3ccc(C(=O)NCCCN4CCN(C)CC4)cc3)c(=O)c2cc1OC,-4%,4%,-13%,-2%,14%,0%,-0.6%,0%
COc1ccc(-n2ccnc(NCc3ccc(Cl)cc3)c2=O)cc1,-7%,·,·,·,?,5%[46.1 µM],-5.5%,·
CCOc1ncccc1C(=O)OCc1ccc([N+](=O)[O-])cc1,·,7%[46.1 µM],-4%,0%,-26%,7%,·,8%
O=C(CN1CCN(Cc2ccc3c(c2)OCO3)CC1)N1CCc2[nH]c3ccccc3c2C1,13%,·,0%,2%,·,·,4.1%,·
CC1CCCN(S(=O)(=O)c2ccc(NC(=O)CN3C(=O)NC(C)(c4ccccc4)C3=O)cc2)C1 (centres undefined),·,-4%,-1%,·,0%,-12%,·,0%
O=C(NC1CCN(Cc2ccccc2)CC1)C1CCN(S(=O)(=O)c2cccc([N+](=O)[O-])c2)CC1,·,20%[46.1 µM],1%,2%,?,13%,·,-9%
CCOC(=O)c1cccc(NC(=O)CCS(=O)(=O)c2cccc3nsnc23)c1,-6%,-10%&-10%,-8%,-3%,-21%,0%,-9.6%,15%
O=S(CC(O)COCc1ccc(Cl)cc1)c1ccccn1 (centres undefined),-1%,-4%,2%,4%,12%,16%,1.7%,12%
COc1ccccc1CNC(=O)CCS(=O)(=O)c1cccc2nonc12,3%,10%,2%,8%,16%,-19%,3.8%,-7%
CCOC(=O)CCc1c(C)nc(-n2[nH]c(C)c(CCO)c2=O)[nH]c1=O,·,14%[46.1 µM],-2%,·,2%,15%,·,-14%
CC1(C)CC(NC(=O)c2ccc(Br)o2)CC(C)(C)N1,·,?,0%,6%,-14%,13%[46.1 µM],·,-12%
CCOC(=O)N1CCN(C(=O)CSc2nc3c(c(=O)n2-c2ccccc2OC)SCC3)CC1,3%,?,-5%,1%,?,-8%,-3.2%,-1%
CC(C)(C)NC(=O)c1ccc(NC(=O)C2COc3ccccc3O2)cc1 (centres undefined),-3%,15%,-2%,-10%,-8%,18%,-1.2%,-2%
COC(=O)c1ccccc1NC(=O)NCc1ccccn1,-1%,0%,-1%,-6%,1%,22%,0.8%,-7%
CN(C)c1ccc(C(=O)OCc2ccc(Br)cc2)cc1,-6%,?,-18%,-12%,15%,?,-13%,-6%
CCOc1ccc(CCNC(=O)C2CCCN(S(C)(=O)=O)C2)cc1OCC (centres undefined),·,?,1%,7%,30%[activator],17%[46.1 µM],·,14%
CC(C)CC1NC(C(=O)O)Cc2c1[nH]c1ccccc21 (centres undefined),·,6%,-3%,-2%,7%,8%,·,-4%
Cc1cccc(NC(=O)CSCC(=O)N(C)Cc2ccc3c(c2)OCCO3)c1,·,14%,·,·,-22%,?,·,-11%
Cc1ccc(C)n1-c1nnc(N2CCCC(C(=O)Nc3ccccc3Br)C2)s1 (centres undefined),-11%,-6%[46.1 µM],·,·,0%,-5%[46.1 µM],-5.7%,·
CCCC(=O)N1CCN(c2ccc(NC(=O)c3ccc([N+](=O)[O-])o3)cc2Cl)CC1,·,?,-23%,·,20µM*,?,·,?
CN(C(=O)COC(=O)c1nc(-c2ccccc2)n(-c2ccccc2)n1)C1CCS(=O)(=O)C1 (centres undefined),7%,-3%,-3%,-11%,18%,-3%,4.0%,?
Cc1cc(C(=O)NCc2ccccc2F)c2ccccc2n1,·,-16%[46.1 µM],0%,7%,3%,-2%[46.1 µM],·,1%
CC(NC(=O)CCC(=O)c1ccc(F)cc1)C1CC2CCC1C2 (centres undefined),·,10%[46.1 µM],1%,·,-17%,?,·,209%
Cc1ccc(NC(=O)C(=O)c2c(-c3ccccc3)cc3ccccn23)cc1S(=O)(=O)N1CCOCC1,-7%,?,0%,?,-16%,-1%,2.0%,14%[3.69 µM]
COc1cc(OC)c(N(C)C(=O)c2cn(C)c(=O)c3cc(OC)c(OC)cc23)cc1Cl,·,5%&5%[46.1 µM],2%,-6%,-14%&-10%,1%[46.1 µM],·,-5%
CCc1ccc(NCc2cc3cc4c(cc3n(CC(=O)Nc3ccc(C)cc3)c2=O)OCO4)cc1,-22%,·,·,·,21%,14%[46.1 µM],-3.3%,·
CC1CCCCC1NC(=O)CCS(=O)(=O)c1ccc2c(c1)NC(=O)CS2 (centres undefined),·,·,3%,-1%,11%,·,·,9%
C=CCn1c(COc2ccc(Cl)cc2)nnc1SCC(=O)NCC(=O)OCC,?,0%,4%,-4%,-6%,18%,-2.3%,-6%
O=C(Nc1ccccc1)c1nn(-c2ccccc2)c(=O)cc1C(F)(F)F,?,0%,0%,1%,-12%,-3%,1.3%,2%
NC(=O)c1ccc(NC(=O)CCc2nc3sc4c(c3c(=O)[nH]2)CCCC4)cc1,·,-14%,2%,·,-11%,-1%,·,13%
Cc1c(NC(=O)CC2CC(C)OC2=O)c(=O)n(-c2ccccc2)n1C (centres undefined),·,13%,·,9%,0%,22%,·,-1%
Cc1c2c(cc3c1[nH]c1ccccc13)C=NCC2,·,?,·,·,-6%,8%[46.1 µM],·,2%
CCCn1c(=O)c(F)cn(Cc2ccc(OC)c([N+](=O)[O-])c2)c1=O,3%,1%,-1%,5%,12%,-1%,9.9%,2%
CCC(O)CNC(=O)CCc1nnc(C2(c3ccc(Cl)cc3)CCC2)o1 (centres undefined),·,-1%[46.1 µM],1%,-1%,3%,2%[46.1 µM],·,-14%
Cc1cc(C)cc(-n2nnn(C3C/C(=N/NC(N)=S)C4OCC3O4)c2=S)c1 (centres undefined),·,-7%[46.1 µM],?,·,-20%,-10%[46.1 µM],·,-25%
O=C(CCCOc1ccccc1)Nc1ccccc1C(F)(F)F,-2%,?,22%,-5%,-32%,10%,-1.1%,-3%
COc1ccccc1N(C)C(=O)Cn1c(=O)oc2cc(S(=O)(=O)N3CCCC3)ccc21,2%,-5%[46.1 µM],·,·,-1%,-7%[46.1 µM],-1.9%,·
Cc1csc(NC(=O)CSc2nnc(NC(=O)COc3ccc(Cl)cc3)s2)n1,5µM*,23%,-17%,19%,12%,-6%,-0.5%,-12%
CCN(CC)CCNC(=O)C1(O)c2cc(Br)ccc2NC(=O)N1c1ccc(Cl)cc1 (centres undefined),·,·,8%,6%,0%,·,·,2%
COc1ccc2[nH]c(=O)c(C(c3nnnn3C(C)(C)C)N(Cc3ccco3)CC3CCCO3)cc2c1 (centres undefined),?,?,8%,-19%,3%,-10%,-2.7%,3%
